Compound activity as filed in PubChem BioAssay.
KCNQ2 pot – potentiators of rat KCNQ2 potassium channel; B-score at 10 µM; CHO-K1 KCNQ2, FluxOR thallium flux fluorescence; stronger effect = higher value; hit rate 0.54% among 310,000; AID 2239;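 active = fluorescence ratio B-score at least 3 SD of library B-scores, with initial fluorescence B-score within 3 SD, cut at about 5.3 in these data; same plate scores as AID 2156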;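 also: B-score of peak minus minimum over baseline fluorescence ratio after K+ and Tl+ stimulus; positive B-score means potentiation of KCNQ2 with more thallium influx and brighter signal; only the inactives scoring about 0 or higher are listed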
Target sequence (O88943 whole entry, looked up): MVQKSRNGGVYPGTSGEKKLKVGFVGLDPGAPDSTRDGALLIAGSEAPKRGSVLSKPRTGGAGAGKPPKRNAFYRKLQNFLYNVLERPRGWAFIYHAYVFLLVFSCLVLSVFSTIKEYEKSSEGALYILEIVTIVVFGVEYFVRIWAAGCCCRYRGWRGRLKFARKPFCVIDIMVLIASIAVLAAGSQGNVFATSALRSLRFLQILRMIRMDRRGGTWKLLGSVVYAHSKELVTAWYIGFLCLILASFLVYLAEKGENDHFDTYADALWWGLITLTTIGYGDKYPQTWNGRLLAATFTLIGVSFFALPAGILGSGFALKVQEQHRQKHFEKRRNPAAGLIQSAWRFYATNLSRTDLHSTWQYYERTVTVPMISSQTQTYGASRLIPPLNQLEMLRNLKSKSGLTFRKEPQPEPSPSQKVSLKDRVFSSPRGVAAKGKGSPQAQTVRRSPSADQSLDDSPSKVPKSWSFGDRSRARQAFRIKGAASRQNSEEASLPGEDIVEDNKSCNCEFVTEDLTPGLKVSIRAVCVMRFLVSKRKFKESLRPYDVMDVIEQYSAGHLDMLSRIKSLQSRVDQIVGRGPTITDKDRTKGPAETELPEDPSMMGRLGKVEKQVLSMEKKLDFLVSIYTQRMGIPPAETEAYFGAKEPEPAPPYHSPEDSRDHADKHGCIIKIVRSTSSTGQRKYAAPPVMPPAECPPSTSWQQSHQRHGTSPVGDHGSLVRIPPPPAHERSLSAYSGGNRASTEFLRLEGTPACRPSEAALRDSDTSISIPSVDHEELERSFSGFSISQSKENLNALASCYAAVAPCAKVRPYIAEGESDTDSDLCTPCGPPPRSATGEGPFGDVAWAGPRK
KCNQ2 pot baseline – second read-out of KCNQ2 pot, no call of its own (marks repeat the call); B-score; compound at 10 µM; measured here: initial fluorescence intensity artifact check;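 brightness before thallium and not channel activity; 0 = typical well and far values either way flag optical interference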
* hit, by the source's call. This is a subset; the hit share may differ from the screen's.

KCNQ2 pot,KCNQ2 pot baseline,molecule
0.97,0.98,O=C1NC[C@H](Cc2ccc(O)cc2)N(CCc2cccc3ccccc23)C1=O
4.01,-2.36,COc1ccccc1C(=O)NC(=O)COC(=O)c1cccc(NC(C)=O)c1
0.1,-0.3,O=S(=O)(c1ccc(Cl)cc1)N1CCN(Cc2cccnc2)CC1
0.1,1.08,CCO[C@@H]1OC(C(=O)NCc2ccccc2)=C[C@H](c2csc3ccccc23)[C@H]1CCCO
0.05,0.14,O=C1CCCN1CCCNS(=O)(=O)c1ccc(Cl)c(C(=O)N2CCOCC2)c1
1.03,0.23,CC1CCc2sc3ncn4nc(C(=O)NCc5ccco5)nc4c3c2C1 (stereo unspecified)
0.01,-4.47,O=C(COc1ccccc1Cl)NCc1nc(-c2ccccc2)no1
1.08,0.73,Cc1ccc2[nH]c3nc(NN)nnc3c2c1
1.03,2.93,CCOc1ccc(CCNC(=O)COn2nnc3ccc(S(=O)(=O)N4CCOCC4)cc32)cc1OCC
0.01,1.81,CS(=O)(=O)N1CCN(c2cccc(Cl)n2)CC1

Shown with two lines to a compound: 3 of the compounds above
Every second line gives: KCNQ2 pot, KCNQ2 pot baseline
Cc1ccc2[nH]c3nc(NN)nnc3c2c1
  1.08, 0.73
CCOc1ccc(CCNC(=O)COn2nnc3ccc(S(=O)(=O)N4CCOCC4)cc32)cc1OCC
  1.03, 2.93
CS(=O)(=O)N1CCN(c2cccc(Cl)n2)CC1
  0.01, 1.81

The results go on:
KCNQ2 pot,KCNQ2 pot baseline,molecule
2.31,-1.41,Cc1cccc(NC(=O)C[n+]2ccc(N(C)C)cc2)c1
0.29,0.81,CCSCCOC(=O)C1=C(C)N(C)C(=O)NC1c1ccc2c(c1)OCO2 (stereo unspecified)
0.94,0.43,CN1CCN(S(=O)(=O)c2ccc(NC(=O)c3cccc(S(=O)(=O)N4CCCC4)c3)cc2)CC1
0.63,0.12,CCC(C)NCCOc1ccc(C)cc1[N+](=O)[O-] (stereo unspecified)
1.11,0.92,COc1ccc(N(CC(=O)N2CCCCCC2)S(=O)(=O)c2c(C)[nH]c(=O)[nH]c2=O)cc1
1.63,0.12,O=C1CC(Cc2ccccc2)C(=O)N1c1ncccn1 (stereo unspecified)
0.12,-1.11,O=C(N/N=C\C=C\c1ccco1)c1cc(-c2ccc3ccccc3c2)n[nH]1
0.2,0.54,O=S1(=O)CCOC[C@H](c2ccccc2)N1Cc1ccccc1
0.13,0.05,CC(=O)Nc1ccc2c(c1)CCC2=O
1.41,-0.04,O=C(COC(=O)c1ccc(O)cc1)Nc1ccccc1
0.31,-1.33,CC(Cc1cccs1)NC(=O)Nc1ccc([N+](=O)[O-])cc1 (stereo unspecified)
1.4,-0.19,CC(=O)Nc1ccc(S(=O)(=O)N(Cc2cccnc2)Cc2cc3ccc(C)cc3[nH]c2=O)cc1
1.4,-2.37,Cc1cc(=O)oc2cc(OCC(=O)NCC3CCCO3)ccc12 (stereo unspecified)
0.65,0.03,CCc1nnc(NC(=O)COc2ccc3ccccc3c2)s1
0.12,1.93,CC1CCCN(c2ccc(C(=O)NCc3cccs3)cn2)C1 (stereo unspecified)
2.25,0.33,CCN(CC)C(=O)CSc1nnc(CCCCCNC(=O)OC(C)(C)C)o1
0.58,-0.24,CCN1CCN(C(=S)Nc2ccc3nc(N4CCN(C)CC4)cc(C)c3c2)CC1
1.52,-0.67,CCOC(CNC(=O)c1ccc(N2CCc3ccccc32)c([N+](=O)[O-])c1)OCC
0.06,-1.53,CCOC(=O)c1c(NC(=O)C2COc3ccccc3O2)sc(C(C)=O)c1C (stereo unspecified)
1.63,0.12,Clc1ccc(CNCCCSc2ncccn2)cc1

A draw from above in order of count of non-hydrogen atoms, low to high.
KCNQ2 pot,KCNQ2 pot baseline,molecule
1.63,0.12,Clc1ccc(CNCCCSc2ncccn2)cc1
0.31,-1.33,CC(Cc1cccs1)NC(=O)Nc1ccc([N+](=O)[O-])cc1 (stereo unspecified)
0.12,1.93,CC1CCCN(c2ccc(C(=O)NCc3cccs3)cn2)C1 (stereo unspecified)
1.4,-2.37,Cc1cc(=O)oc2cc(OCC(=O)NCC3CCCO3)ccc12 (stereo unspecified)
2.25,0.33,CCN(CC)C(=O)CSc1nnc(CCCCCNC(=O)OC(C)(C)C)o1
1.52,-0.67,CCOC(CNC(=O)c1ccc(N2CCc3ccccc32)c([N+](=O)[O-])c1)OCC

Going on with the list.
KCNQ2 pot,KCNQ2 pot baseline,molecule
1.38,1.04,Cc1ccc(CSCCNC(=O)c2ccc(NS(C)(=O)=O)cc2)cc1
0.92,1.03,CCn1c(=S)sc2c(=O)n(-c3ccccc3)c(SCC(=O)NCc3ccco3)nc21
0.31,-0.22,CCOC(=O)c1[nH]c2cc3c(cc2c1NC(=O)CN1CCN(CCO)CC1)OCO3
0.19,-1.65,CCOC(=O)c1cnn(-c2nc(-c3ccccc3)cs2)c1C(F)(F)F
0.47,0.31,O=C(Cn1c(=O)sc2ccccc21)NCc1ccccn1
0.05,0.89,c1ccc(C(c2ccccc2)c2noc(CN3CCN(C4CCCC4)CC3)n2)cc1
0.09,0.11,O=C(c1cccc2ccccc12)N1CCCCC1
0.76,2.06,Cn1cccc1/C=N\NC(=O)Cc1ccc(Br)c2ccccc12
0.11,-0.61,CCCCn1c(N)c(N(CCOC)C(=O)C(C)N2C(=O)c3ccccc3C2=O)c(=O)[nH]c1=O (stereo unspecified)
0.92,-1.04,CCc1nc2oc3cc(OC)ccc3c(=O)c2c(=O)n1-c1ccccc1
0.71,-1.76,Cc1ccc(NC(=O)N2CCCC2C(=O)NCc2cccs2)cc1 (stereo unspecified)
0.14,-1.87,CCCCCCCC(=O)N/N=C(\C)c1ccc(O)cc1O
0.91,-0.23,CC1=Nn2c(nc3sc4c(c3c2=O)CCCC4)SC1
1.01,3.19,O=C(CN1C(=O)NC2(CCCCC2)C1=O)N1CCN(S(=O)(=O)/C=C/c2ccccc2)CC1
0.09,-0.46,O=C(Cc1nnc(NC(=O)Nc2ccccc2F)s1)NCc1ccccc1
1.62,0.61,CSc1nc(NCCOCCO)c2sc3nc(-c4ccco4)c4c(c3c2n1)CCC4
0.25,-0.8,COc1ccc(CC(=O)NC(C)c2nnc(SCC(=O)Nc3nc(C)cs3)n2C)cc1 (stereo unspecified)
0.09,-0.32,O=C(NCCc1ccccn1)c1cc(-c2ccccc2Cl)nc2ccccc12
0.89,0.24,Cc1cc(NC(=O)c2ccccc2)ccc1NC(=O)Cc1ccccc1
0.73,0.02,CC(=O)c1ccc(OCCCC(=O)OCC(=O)Nc2ccc3[nH]c(=O)[nH]c3c2)cc1

Some values from the results shown:
`CCN(CC)C(=O)CSc1nnc(CCCCCNC(=O)OC(C)(C)C)o1` in KCNQ2 pot baseline: 0.33
`Cc1ccc(CSCCNC(=O)c2ccc(NS(C)(=O)=O)cc2)cc1` in KCNQ2 pot baseline: 1.04

(listing goes on)
KCNQ2 pot,KCNQ2 pot baseline,molecule
1.03,-0.39,O=C(CCCCn1c(=O)[nH]c2ccsc2c1=O)NCc1cccnc1
1.55,-0.02,O=C(c1ccc([N+](=O)[O-])cc1)N1CCN(Cc2ccccc2[N+](=O)[O-])CC1
0.52,-1.38,CCS(=O)(=O)c1nnnn1-c1ccccc1S(C)(=O)=O
0.1,0.31,COCCNC(=S)N/N=C/c1ccc(N2CCOCC2)cc1
0.05,-0.04,CCC(Sc1ccc2nnc(-c3ccc(F)cc3)n2n1)C(=O)O (stereo unspecified)
0.95,-1.55,Cc1ccc(CN2CCN(Cc3ccc(-n4cccn4)cc3)CC2CCO)cc1 (stereo unspecified)
2.28,0.04,CC1CCN(S(=O)(=O)c2ccc3c(c2)N(CC(=O)NCCCN(Cc2ccccc2)C(C)C)C(=O)CO3)CC1
0.68,-0.15,COc1ccc(S(=O)(=O)N2CCOCC2)cc1NC(=O)c1ccc(Cl)cc1
0.57,1.47,NS(=O)(=O)c1ccc(CNC(=O)Cc2ccsc2)cc1
0.58,-0.16,CCN(CC)C(=O)N1CCC(NC(=O)c2ccccc2)CC1
0.99,0.47,O=C(COc1ccc2ccccc2c1)N/N=C/C1CC=CCC1 (stereo unspecified)
0.98,0.06,CN(C(=O)COC(=O)c1nc(Cl)ccc1Cl)C1CCS(=O)(=O)C1 (stereo unspecified)
0.93,-1.39,CC12CC(c3ccccc3O1)C(/C(N)=N/NC(=O)c1ccc(F)cc1)C(=O)N2 (stereo unspecified)
0.73,0.1,O=C(Nc1cccc(C(F)(F)F)c1)NC1CCCCC1
8.35*,-0.85*,Cc1cc(C)cc(OCC(=O)OCC(=O)N(C)CC(=O)Nc2ccc(F)cc2)c1
0.64,0.26,CC(=O)c1cccc(N(CC(=O)NCC2CCCO2)C(=O)CCC(=O)Nc2cc(C)on2)c1 (stereo unspecified)
1.35,-0.01,CCn1c(SCC(=O)c2cc(OC)ccc2OC)nnc1-c1ccncc1
1.59,-0.01,COc1cccc2sc(N(CCN(C)C)C(=O)c3ccc(S(=O)(=O)N4CCCC4)cc3)nc12
0.83,0.07,COc1ccc(/C=N/NS(=O)(=O)c2ccc(C)cc2)cc1OC(=O)c1ccccc1
0.16,-0.63,COc1ccc([N+](=O)[O-])cc1NC(=O)c1ccc(N(Cc2ccccc2Cl)S(C)(=O)=O)cc1
0.44,1.03,CC(C)CCn1nnnc1CN1CCN(C(=O)c2ccco2)CC1
0.75,1.96,CC1(C)CC2(CC(c3ccccc3)Oc3cc(O)ccc32)NC(=O)N1 (stereo unspecified)
0.84,2.34,O=C(CSc1ccccc1)Nc1ccc2c(c1)OCO2
1.79,-1.15,CNC(=S)N1CCC(c2nc3ccccc3s2)CC1
1.01,0.23,CC1(C)CC(=O)C(C(c2cc([N+](=O)[O-])ccc2Cl)C2C(=O)CC(C)(C)CC2=O)C(=O)C1
0.23,-1.31,CCOc1ccc2nc(N(CCCN(C)C)C(=O)c3ccc(S(=O)(=O)N4CCc5ccccc5C4)cc3)sc2c1
0.39,-0.01,Cc1ccc(CN2CCNC(=O)C2CC(=O)N2CCN(c3ncccn3)CC2)o1 (stereo unspecified)
1.99,-0.53,Cc1cc(S(=O)(=O)Nc2cccc(Cl)c2)c(C)s1
0.68,0.45,CN(C)S(=O)(=O)c1cccc(NC(=O)COC(=O)/C=C/c2ccc([N+](=O)[O-])cc2)c1
0.56,2.06,CCC(=O)Nc1cccc(C(=O)Nc2nccs2)c1

Full records from above. Order of screens: KCNQ2 pot	KCNQ2 pot baseline
`CC1(C)CC2(CC(c3ccccc3)Oc3cc(O)ccc32)NC(=O)N1` (stereo unspecified) across the screens: 0.75	1.96
`CN(C)S(=O)(=O)c1cccc(NC(=O)COC(=O)/C=C/c2ccc([N+](=O)[O-])cc2)c1` across the screens: 0.68	0.45

Next part:
KCNQ2 pot,KCNQ2 pot baseline,molecule
1.78,0.03,O=C(COc1ccc(Br)cc1Br)NN1C(=O)c2ccccc2C1=O
0.61,0.33,CCCN(CCC)CCCNC(=O)Cn1cnc2sc(C)c(S(=O)(=O)N3CCCCC3)c2c1=O
2.77,2.04,CC(C)(C)c1ccc(/C=N/Nc2cccc(C(=O)O)c2)cc1
0.64,1.04,COc1ccc(S(C)(=O)=O)cc1S(C)(=O)=O
0.86,0.32,CC1(C)CC2(CC(c3ccc(F)cc3)c3ccc(O)cc3O2)NC(=S)N1 (stereo unspecified)
0.48,1.07,O=C(Nc1cnc2ccccc2c1)c1ccco1
0.46,1.01,CCN(CC(=O)Nc1c(F)cccc1F)C(=O)CNC(=O)c1ccc2c(c1)OCO2
0.68,-0.65,Cc1csc2nc(O)c(C(=O)NCC3CCCO3)c(=O)n12 (stereo unspecified)
0.42,1.08,CC(C)(C)Nc1nc(Cl)nc(NC(C)(C)C)n1
1.16,-0.64,COc1cccc(OC)c1C(=O)NC(=S)NCc1ccco1
1.03,0.17,Cc1nc2ccccn2c1-c1csc(Nc2cccc(C(=O)O)c2)n1
1.74,1.37,O=C(OC1CCOC1=O)c1cc(Cl)ccc1[N+](=O)[O-] (stereo unspecified)
2.06,-0.72,CC[C@@H](C)[C@H](NC(=O)Cc1c(C)c2cc3c(C)c(C)oc3c(C)c2oc1=O)C(=O)O
0.45,-2.13,COc1ccc(NC(=O)CSc2nnc(CNc3ccc(C)cc3)n2C)cc1
2.33,1.89,O=C(CSc1nc(-c2ccc(Cl)cc2)[nH]c(=O)n1)Nc1cccc(Cl)c1
0.36,0.24,COc1ccc(NC(=O)C2CC(=O)N(c3ccccc3C)C2)c(OC)c1 (stereo unspecified)
0.7,0.72,COC(=O)C1CCN(C(=O)/C=C/c2ccccc2)CC1
0.19,1.11,N#Cc1ccc(C(=O)Nc2ccn(-c3ccccc3)n2)cc1
0.28,-1.04,CC1CCCC(NC(=O)COC(=O)Cc2c[nH]c3ccccc23)C1C (stereo unspecified)
1.23,3.48,Cc1ccccc1/C=N/Nc1ccnc2cc(Cl)ccc12
0.23,2.37,COc1cccc(CNc2nc3nc4c(c(=O)n3[nH]2)CCC4)c1
0.06,0.16,O=C(NC1CCCC1)C(c1ccc(Cl)cc1)N1CCN(C2CCCCC2)CC1 (stereo unspecified)
0.64,-0.32,COc1ccc(NC(=O)CS(=O)(=O)c2ccc(Br)cc2)cc1
0.13,0.94,Cc1ccc(-n2c(C)cc(/C=c3/sc4nc5ccccc5n4c3=O)c2C)cc1
0.06,-2.8,COc1ccc2c(CC(=O)OCC(=O)NC(=O)c3cccn3C)coc2c1
0.65,0.88,CC(=O)/C(C#N)=C1\NC(=O)C(Cc2ccc(F)cc2)S1 (stereo unspecified)
0.02,0.56,COc1ccc(-c2cc(C(=O)NCC3CCCO3)c3ccccc3n2)cc1 (stereo unspecified)
1.24,-0.31,Cc1cc(C(=O)COC(=O)CN(C)S(=O)(=O)c2ccc(Cl)cc2)c(C)n1CC1CCCO1 (stereo unspecified)
1.06,-0.21,Cn1cc(C(=O)Nc2ccccn2)c(=O)c2ccccc21
0.42,0,Cc1cc(=O)oc2c(C)c(OCC(=O)N(C)C)ccc12
0.42,-1.65,CCCCOc1ccc(S(=O)(=O)NC(=O)NCc2ccc(OCCC)cc2)cc1
0.62,0.65,Cc1ccc(/C=N\NC(=O)CCc2n[nH]c(=O)[nH]c2=O)o1
1.13,-0.47,CCCCOC(=O)C(NC(=O)c1ccccc1)=C(C)C
